Vaccinia mCherry: qHTS for Stage-Specific Inhibitors of Vaccinia Orthopoxvirus: mCherry Reporter Primary qHTS; 310,000 compounds, 0.63% hits; Potency, µM (highest dose often 36.5 µM), for inactives: at the top dose activity change, negative = inhibition, most hits filed as inhibitors; Vaccinia virus mCherry reporter infection, fluorescence; about a quarter of the inactives have no number; active = well fitted inhibition curve with a large enough effect; inconclusive = small, poorly fitted or top-dose-only effect; inactive = no such curve, though single readings can be large or run the other way; tested in A549 cells; note: nearly all actives have a fitted effect of over 35% in size; inactives centre near -10
Vaccinia Venus: qHTS for Stage-Specific Inhibitors of Vaccinia Orthopoxvirus: Venus Reporter Primary qHTS. Vaccinia virus Venus reporter expression, fluorescence. Potency, µM (series often up to 36.5 µM), for the others: top-dose activity change, negative = inhibition, usual class: inhibitors. 330,000 compounds, 0.46% hits. AID 720580, 2013; active means well fitted inhibition curve with a large enough effect; inconclusive means small, poorly fitted or top-dose-only effect; inactive means no such curve, though single readings can be large or run the other way; tested in A549 cells; note: nearly all actives have a fitted effect of over 30% in size; inactives centre near -10
An asterisk follows results filed as active; i = inactive; u = inconclusive; x = not tested or not shown; [ ] = dose if it differs, or a comment. % is set by controls: 0 for no effect and ±100 for the full control effect; potency is the fitted concentration of half-maximal effect. Compounds as they come. About 0.82% of those tested had a hit in this group.

Results follow in this order: Vaccinia mCherry	Vaccinia Venus
> O=C(CCn1nnnc1CN1CCOCC1)N1CCC(c2ccccc2F)C1 (centres undefined)
→ i	-14%
> COc1c(C(=O)Nc2ccc(Cc3ccncc3)cc2)ccc2ccccc12
→ -24%	u
> O=C(CCc1ccccc1)NNC(=O)COc1ccc(Br)cc1
→ -2%	-16%
> O=C(N/N=C\c1cc(Br)c(Br)o1)C1COc2ccccc2O1 (centres undefined)
→ -13%	-12%
> COc1cccc(-c2ncc3ccccc3c2COC(=O)c2ccco2)c1
→ u	-23%
> CCCCOc1ccccc1C1NC(=O)NC(C)=C1C(=O)OCCOCC (centres undefined)
→ -19%	-8%
> CCOc1ccc(NC(=O)c2c(C)oc3nc(C)nc(N4CCCC4)c23)cc1
→ -4%	-17%
> CN(C)c1ccc(S(=O)(=O)NCC(=O)N2CCN(c3ccccc3)CC2)cc1[N+](=O)[O-]
→ i	-15%
> COC(=O)CC#N
→ i	-10%
> Cc1noc2ncnc(Nc3ccc(F)cc3)c12
→ -11%	-5%
> OC(COc1ccc2c(c1)CCC2)CN1CCN(c2ccccc2F)CC1 (centres undefined)
→ -14%	-2%
> COc1ccc2cc(-c3cc(C(=O)OCC(=O)Nc4c(C)n(C)n(-c5ccccc5)c4=O)c4ccccc4n3)ccc2c1
→ -15%	-17%
> Cc1ccc(OC(=O)CSc2nnc(CNC(=O)c3ccccc3)o2)cc1
→ -6%	-5%
> C[C@@H]1CCC[C@H](C)N1Cc1nc(Cc2ccccc2Cl)no1
→ -5%	-2%
> O=C(O)c1nc(Cl)c(Cl)c(N/N=C/c2ccccc2C(F)(F)F)c1Cl
→ -4%	-13%
> COCC(=O)N1CCC(Oc2ccc(C(=O)N3C[C@@H]4CCC[C@H]3C4)cc2)CC1
→ -12%	-7%
> Cc1cc(N2CCCCC2)nc2c(C)cccc12
→ -10%	7%
> Cc1nn(-c2ccc(N3CCCC3)nn2)c(C)c1CCC(=O)NCc1ccc(F)cc1
→ -9%	-4%
> CC1CCCCN1C(=O)CCNC(=O)Cn1cnc2ccccc2c1=O (centres undefined)
→ -9%	-3%
> Cc1cc(C)c2nc(SCC(=O)NC(=O)c3cccn3C)cc(C)c2c1
→ 0%	1%
> O=C(N=Nc1c(O)[nH]c2ccccc12)c1ccccc1NS(=O)(=O)c1cccs1
→ -16%	-23%
> COc1cccc(/C(C)=N/Nc2ncc(Cl)cc2Cl)c1
→ i	-20%
> Cc1oc2ncnc(N3CCCCC3)c2c1C(=O)N1CCN(c2cccc(C(F)(F)F)c2)CC1
→ -14%	5%
> COc1cc(OC)c(C(=O)Nc2ccc3ccccc3c2)cc1OC
→ -16%	-11%
> CC(=O)c1cc(-c2ccccc2)n(CC(=O)Nc2cccc(C)c2C)c1C
→ -10%	5%
> COc1cccc2cc(-c3nc4sc(C(=O)Nc5ccc(F)cc5F)c(C)c4c(=O)[nH]3)c(=O)oc12
→ -4%	23%
> Cc1cccc(C(=O)Nc2ccc(N3CCN(S(C)(=O)=O)CC3)cc2)c1
→ -4%	-5%
> O=C1CN(S(=O)(=O)c2ccccc2)CCN1S(=O)(=O)c1ccccc1
→ -8%	-6%
> O=c1c2ccccc2n2c(-c3ccc(F)cc3)nnc2n1Cc1ccccc1
→ i	-4%
> CN(C)c1ccc(-n2cccc2/C=C2/SC(=Nc3ccc(F)cc3)NC2=O)cc1
→ -6%	0%
> CN1CCN(C(=O)c2cc3nc(-c4ccco4)cc(C(F)(F)F)n3n2)CC1
→ i	-13%
> Cc1ccc(S(=O)(=O)Oc2cc(N)c3c(n2)CCC3)cc1
→ i	-11%
> CCC/C(O)=C1\C(=O)CC(c2ccccc2)CC1=NCCc1c(C)[nH]c2ccc(C)cc12 (centres undefined)
→ i	-11%
> O=c1c2ccccc2oc2cc(NCCCN3CCOCC3)ccc12
→ u	u
> CCOc1ccc(C(=O)OCC(=O)N2CCCC2)cc1OCC
→ 25%	-4%
> Cc1ccc(C(=O)CCC(=O)Nc2cccnc2)cc1C
→ -12%	u
> O=C(Nc1ccc2c(c1)ncn2C1CCCCC1)c1ccco1
→ -13%	-17%
> CC1=C(C(=O)OCCOC(C)C)C(c2cccc3ccccc23)NC(=O)N1 (centres undefined)
→ i	-18%
> C[C@H](CO)N1C[C@H](C)[C@@H](CN(C)Cc2cncnc2)Oc2cc(Br)ccc2S1(=O)=O
→ -14%	-6%
> COc1ccc(/C=C/C(=O)OCC(=O)N2c3ccccc3CC2C)c(OC)c1 (centres undefined)
→ -12%	-10%

Additional records follow:
SMILES	Vaccinia mCherry	Vaccinia Venus
C[C@H]1CN([C@@H](C)CO)C(=O)CCCn2cc(nn2)CO[C@@H]1CN(C)C(=O)Nc1ccc(N2CCN(C)CC2)cc1	-11%	-4%
Cc1onc(-c2c(Cl)cccc2Cl)c1C(=O)Nc1ccc(N2CCOCC2)cc1	-10%	-5%
Cc1ccc(S(=O)(=O)N[C@H](C(=O)OCC(=O)NC(=O)C2CCCCC2)C(C)C)cc1	-14%	-7%
Cc1ccccc1NS(=O)(=O)c1ccc(C(=O)N2CCCC2)cc1	-20%	-10%
Cc1cc(NC(=O)c2cc3n(n2)C(C(F)(F)F)CC(c2ccco2)N3)n(-c2ccccc2)n1 (centres undefined)	u	-23%
CCOc1cc(/C=N/NC(=S)Nc2ccccc2C(F)(F)F)ccc1OCC(=O)N1CCOCC1	-3%	-24%
Cc1ccc(C(=O)COC(=O)CN2C(=O)C3CC=CCC3C2=O)cc1[N+](=O)[O-] (centres undefined)	i	3%
CCc1cc(C(=O)NCC2Cc3cccc(-c4ccc(C(=O)OC)cn4)c3O2)no1 (centres undefined)	-15%	-2%
O=C(Nc1ccccn1)c1ccco1	-13%	-9%
COc1ccccc1C(=O)Nc1cccc(Oc2c(F)c(F)c(F)c(F)c2F)c1	i	-4%

Reprinted from the part before: six compounds, followed by the next part.
SMILES	Vaccinia mCherry	Vaccinia Venus
Cc1cc(NC(=O)c2cc3n(n2)C(C(F)(F)F)CC(c2ccco2)N3)n(-c2ccccc2)n1 (centres undefined)	u	-23%
CCOc1cc(/C=N/NC(=S)Nc2ccccc2C(F)(F)F)ccc1OCC(=O)N1CCOCC1	-3%	-24%
Cc1ccc(C(=O)COC(=O)CN2C(=O)C3CC=CCC3C2=O)cc1[N+](=O)[O-] (centres undefined)	i	3%
CCc1cc(C(=O)NCC2Cc3cccc(-c4ccc(C(=O)OC)cn4)c3O2)no1 (centres undefined)	-15%	-2%
O=C(Nc1ccccn1)c1ccco1	-13%	-9%
COc1ccccc1C(=O)Nc1cccc(Oc2c(F)c(F)c(F)c(F)c2F)c1	i	-4%
CCN(CC(=O)Nc1ccc(NC(C)=O)cc1)C(=O)c1cccc(Oc2ccccc2)c1	-22%	-17%
CC(C)(C)OC(=O)N1CCCC(C(=O)Nc2ccc(C(=O)N3CCOCC3)cc2)C1 (centres undefined)	-25%	-7%
Brc1ccc(C2Nc3cccc4cccc(c34)N2)cc1	-23%	5%
COC(=O)c1cc(S(=O)(=O)Nc2cccc(OC)c2)cn1C	u	-17%
Cc1cccc(CCNC(=O)CN(c2ccc(C(C)C)cc2)S(=O)(=O)c2c(C)nn(C)c2C)c1	i	-15%
O=C(Cn1c(=O)cnc2ccccc21)Nc1cc(Cl)ccc1N1CCOCC1	-6%	-10%
COc1ccc(NC(=O)C2CC(=O)N(c3ccccc3Cl)C2)c(OC)c1 (centres undefined)	i	-4%
C=CCOc1ccc(C2C(C(=O)c3ccc(C)o3)=C(O)C(=O)N2Cc2cccnc2)cc1 (centres undefined)	-18%	-11%
CCn1c(SCC(=O)N2CCCc3ccccc32)nnc1-c1cccs1	-14%	-9%
NC(=O)c1ccc[n+](Cc2ccc(-c3ccccc3)cc2)c1	-15%	3%

Looked up above:
In Vaccinia Venus, `COC(=O)c1cc(S(=O)(=O)Nc2cccc(OC)c2)cn1C` reads -17%
In Vaccinia mCherry, `CCn1c(SCC(=O)N2CCCc3ccccc32)nnc1-c1cccs1` reads -14%
In Vaccinia Venus, `COc1ccc(NC(=O)C2CC(=O)N(c3ccccc3Cl)C2)c(OC)c1` (centres undefined) reads -4%

(more compounds)
SMILES	Vaccinia mCherry	Vaccinia Venus
COc1ccc2ccccc2c1CN1CCC2(CCC(CNC(=O)c3ccccc3)O2)CC1 (centres undefined)	i	-9%
Cc1ccc(NC(=O)CN(c2cc(C)cc(C)c2)S(=O)(=O)c2c(C)noc2C)nc1	i	-7%
O=C1NC(=S)N(c2ccccc2F)C(=O)/C1=C\c1cccs1	33%[activator]	82%[activator]
C/C(=N\NC(=O)c1nnn(-c2nonc2N)c1CN1CCCCCC1)c1ccc(Br)cc1	i	5%
COc1ccc([C@@H]2[C@@H]3C(=O)N(C(C)(C)C)C(=O)[C@@H]3[C@]3(C)C(=O)N(c4ccccc4)C(=O)N23)cc1	i	-16%
CN1CCN(C2CN(Cc3cn(Cc4ccccc4F)nn3)S(=O)(=O)C2)CC1 (centres undefined)	17%	-1%
N#Cc1cccc(NC(=O)c2sc3nc4c(cc3c2N)N2CCC4CC2)c1	u	-3%
C[C@H]1CN([C@@H](C)CO)C(=O)CCCn2nncc2CO[C@@H]1CN(C)C(=O)c1ccccc1	10%	4%
O=C(O)c1cccc(S(=O)(=O)Nc2ccc(O)cc2Sc2nc3ccccc3s2)c1	-16%	1%
c1ccc(-c2nc3ccccc3nc2N2CCOCC2)cc1	x	-4%
Cn1nc(C(C)(C)C)c([N+](=O)[O-])c1C(=O)NC(C)(C)C	-20%	-7%
COc1ccc2c(c1)CCCC21NC(=O)N(CC(N)=O)C1=O (centres undefined)	-5%	-11%
CCCCCn1c(CCNC(=O)CCC)nc2ccccc21	-2%	-12%
CN(C)S(=O)(=O)c1cccc(NC(=O)c2cc(-c3cccs3)nc3ccccc23)c1	i	-10%
COC(=O)C1=C(c2ccc(F)cc2OCc2ccccc2)C[C@@H]2CC[C@H]1N2C(=O)NCc1ccccc1C(F)(F)F	u	-19%
CCOc1ccc(N(C(=O)Nc2ccccc2)C2=NCCC2)cc1	-18%	-14%
CN(Cc1nccn1C)C(=O)c1cc(COc2ccc3ncccc3c2)on1	u	-4%
Cc1ccc2oc(=O)n(CCCOc3ccc(Cl)cc3)c2c1	-19%	-19%
Cc1cc(OC(C)C(=O)N2CCN(CCc3ccccn3)CC2)ccc1Cl (centres undefined)	i	2%
COc1ccc(OC)c2sc(NC(=O)c3ccc(S(=O)(=O)N4CCOCC4)cc3)nc12	-14%	-14%
O=C(/C=C/c1cccs1)NC(=S)Nc1ccccc1	-4%	0%
Cc1ccc(-c2noc(CN(C(=O)c3cccs3)C(C)C)n2)cc1	-1%	-17%
O=C(CN1CCC(C(=O)c2ccc3c(c2)OCCO3)CC1)NCc1ccccc1	-28%	-8%
COc1cccc(CNC(=O)C2CCCN(c3nc4ccccc4n4cccc34)C2)c1 (centres undefined)	-10%	-10%
COc1ccc(C(=O)C[n+]2ccc(-c3nnc4n3CCCCC4)cc2)cc1	i	-14%
Cc1ccc2oc(C(=O)Nc3sc4c(c3C(=O)NCC3CCCO3)CCC4)cc(=O)c2c1 (centres undefined)	8%	2%
CC(CC(=O)N1CCc2ccccc21)S(=O)(=O)c1ccc2c(c1)NC(=O)CO2 (centres undefined)	-14%	-26%
CCOP(=O)(OCC)C(Nc1ccccn1)c1ccc(F)cc1 (centres undefined)	-19%	-7%
Cc1cccc(C2=NN(c3ccc(Br)cc3)[C@@H](C(=O)N3CCOC3=O)[C@@H]2c2ccc(Cl)cc2)c1	u	u
O=C(Nc1ccc(Cl)cn1)c1cccc(OCc2ccccc2)c1	-13%	-7%
O=C(COC(=O)CNC(=O)c1ccccc1F)NC1CC1	-5%	-9%
COC(=O)C1(C(=O)OC)C/C=C\CCN(S(=O)(=O)c2ccccc2[N+](=O)[O-])CC1	2%	4%
Fc1ccc2cnc(-c3ccccc3)c(-c3ccc(C(F)(F)F)cc3)c2c1	i	3%
CCCc1ccc(OCC(=O)Nc2scc(-c3cccs3)c2C(=O)OC)cc1	-12%	-13%
CCC1CN(CCC(=O)N2CCCN(C(=O)c3ccco3)CC2)Cc2cc(OC)ccc2O1 (centres undefined)	-14%	1%
CC1CCN(C(=O)c2ccc(NS(=O)(=O)c3ccc4[nH]c(=O)[nH]c4c3)cc2)CC1	i	3%
CC1=C(CO)C(=O)OC([C@@H](C)C2CC[C@H]3C4C[C@H]5O[C@]56[C@@H](O)C=CC(=O)[C@]6(C)C4CC[C@]23C)C1 (some centres undefined)	10µM*	u
NNC(=O)[C@H]1C[C@@H]1c1ccccc1	-11%	2%
CCOC(=O)c1cc2c(c(CCO)n1)[C@@H](CCO)N(S(=O)(=O)C(C)(C)C)C2	-13%	-8%
COc1ccc(/C(N)=N/OC(=O)Cc2cccs2)cc1	u	-13%
Clc1cc(Cl)c2nc(N3CCCCC3)sc2c1	-20%	-7%
Cc1cc(NC(=O)CCN2C(=O)C3C4C=CC(C4)C3C2=O)c2ccccc2n1 (centres undefined)	-18%	-7%
COc1ccc(CC(=O)OCC(=O)Nc2ncc(Cl)c(C)c2Cl)cc1	2%	-2%
Cc1cc(NC(=O)COC(=O)c2ccccc2O)no1	-7%	-12%
CN(C)c1cccc(C(=O)Nc2cccc(S(=O)(=O)NC3=NCCC3)c2)c1	i	-7%
CC(=O)C1(C)C(=O)N(c2ccc(C)cc2)C(=O)N1c1ccc(C)cc1 (centres undefined)	i	-3%

From PubChem
